# Screening data (PubChem)
# TRPML1 agonist: qHTS for Agonists of the Human Mucolipin Transient Receptor Potential 1 (TRPML1); TRPML1-expressing cells, Ca2+ dye fluorescence, FDSS; host cell line not named in the record; reference of the full effect not given here; activation, % (test concentration not listed); 410,000 tested, 0.12% active; AID 624414, 2012; in the data active = activation above about 50%; inconclusive = about 30% to 50%; inactive = below about 30%; also: 0% is about no effect; the text of the record puts the active cut at 80%
#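 Agonist activity was taken from a 110 s kinetic Ca2+ dye read on the FDSS after pinning compounds onto TRPML1-DL cells. The cells were seeded at 1,500/well with Tet inducer, incubated about 16 h, then dye-loaded at room temperature.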
# Six1-Eya2 inh: qHTS Assay for Inhibitors of the Six1/Eya2 Interaction; activity change, % (concentration not given with the values); AID 651725, 2012; AlphaScreen GST-Six1/His-Eya2 binding, biochemical; stronger effect = lower value; control for the full effect not named in the record; 360,000 tested, 0.56% active; in the data active = activity change below about -65%; inconclusive = about -30% to -65%; inactive = above about -30%; also: % is scaled to controls: 0 for no effect and ±100 for the full control effect
#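 Compounds are tested against tagged Six1 and Eya2 proteins bridged by glutathione donor and nickel acceptor beads; after a one-hour incubation at 37 °C without light, AlphaScreen emission is recorded.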
# D2 PAM: Beta-Arrestin HTS for Positive Allosteric Modulators of the Human D2 Dopamine Receptor: Potentiators; DiscoveRx D2 beta-arrestin cells, luminescence, 90 min; 100% = 57 uM dopamine signal; potentiation, % (test concentration not listed); AID 624464, 2012; 360,000 tested, 0.23% active; D(2) dopamine receptor (Homo sapiens), P14416; active = potentiation of 50% or more; inconclusive = 30% to 50%; inactive = 30% or less;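 also: compound concentration not given in the record; tested on top of an EC20 dose of dopamine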
#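 PathHunter D2 cells, attached overnight at 37 deg C, received compound in DMSO plus dopamine at EC20 (50 nM final) for 90 min at 37 deg C. Beta-arrestin recruitment was read as luminescence after 1 h with detection reagent at ambient temperature.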
# TRPV1 PAM: HTS Assay for Compounds that Act as Potentiators of the Vanilloid Receptor 1 | TRPV1-expressing cells, Fluo-8 calcium influx, capsaicin EC20 potentiation; host cell line not named in the record; control for the full effect not named in the record | potentiation, % at 8.33 µM | 320,000 tested, 0.02% active | Transient receptor potential cation channel subfamily V member 1 (Homo sapiens), Q8NER1; active means potentiation above 80%; inconclusive means 30% to 80%; inactive means below 30%; also: 0% is about no effect
# Target sequence (Q8NER1 whole entry, looked up): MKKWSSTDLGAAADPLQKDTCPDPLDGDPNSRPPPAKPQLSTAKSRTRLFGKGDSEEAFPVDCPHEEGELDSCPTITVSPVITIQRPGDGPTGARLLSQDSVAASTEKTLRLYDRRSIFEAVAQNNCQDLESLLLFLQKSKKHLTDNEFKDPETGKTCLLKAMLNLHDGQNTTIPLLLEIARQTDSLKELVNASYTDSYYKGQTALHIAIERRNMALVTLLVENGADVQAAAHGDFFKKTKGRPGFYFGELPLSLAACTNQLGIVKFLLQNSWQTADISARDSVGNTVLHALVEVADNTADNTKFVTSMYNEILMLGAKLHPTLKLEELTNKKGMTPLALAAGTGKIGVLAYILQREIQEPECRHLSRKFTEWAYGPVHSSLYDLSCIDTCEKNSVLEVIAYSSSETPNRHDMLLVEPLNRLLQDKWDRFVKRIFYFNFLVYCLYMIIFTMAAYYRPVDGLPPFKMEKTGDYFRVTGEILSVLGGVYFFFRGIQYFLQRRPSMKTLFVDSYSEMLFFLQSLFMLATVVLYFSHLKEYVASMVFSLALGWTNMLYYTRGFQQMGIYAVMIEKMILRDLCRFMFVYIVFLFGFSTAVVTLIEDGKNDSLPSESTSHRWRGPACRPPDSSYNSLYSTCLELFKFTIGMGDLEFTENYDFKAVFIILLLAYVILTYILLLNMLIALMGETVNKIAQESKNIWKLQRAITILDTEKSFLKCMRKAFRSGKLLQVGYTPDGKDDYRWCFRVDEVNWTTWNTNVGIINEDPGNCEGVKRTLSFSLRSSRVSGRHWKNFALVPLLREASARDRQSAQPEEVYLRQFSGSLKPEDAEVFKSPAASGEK
#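 Fluo-8 calcium influx in TRPV1-expressing cells, kinetic read (ex 480/em 520 nm). Compound added and read 3 min for agonist activity, followed by capsaicin at EC20 final and 2 min further read for enhancement.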
# CtBP-E1A blk: qHTS Assay for Inhibitors of the CtBP/E1A Interaction; CtBP / adenovirus E1A interaction (AlphaScreen); AlphaScreen GST-E1A/His-CtBP binding, 1536-well; stronger effect = lower value; control for the full effect not named in the record; activity change, % (concentration not given with the values); 340,000 tested, 0.49% active; AID 651724, 2012; in the data active means activity change below about -65%; inconclusive means about -30% to -65%; inactive means above about -30%; also: % is scaled to controls: 0 for no effect and ±100 for the full control effect
#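 AlphaScreen with 125 nM GST-E1A and 125 nM His-CtBP (5X stocks) in Tris pH 8.0, 300 mM NaCl, BSA, Tween 20, TCEP. Compounds preincubated 2 h at 37 deg C, then glutathione donor/nickel acceptor beads added for 1 h at 37 deg C in dark.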
# TRPML1 blocker: qHTS for Inhibitors of the Human Mucolipin Transient Receptor Potential 1 (TRPML1); Mucolipin-1 (Homo sapiens), Q9GZU1; TRPML1-inducible cells, Ca2+ dye fluorescence, FDSS; stronger effect = lower value; inhibition of EC80 agonist-evoked calcium signal; activity change, negative = inhibition, % (no concentration beside the values); 390,000 tested, 0.02% active; AID 624415, 2012; in the data active means activity change below about -50%; inconclusive means about -30% to -50%; inactive means above about -30%;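 also: stimulus is agonist 54-4 at its EC80 concentration; % is scaled to controls: 0 for no effect and ±100 for the full control effect; compound concentration not given in the record; the text of the record puts the active cut at -80%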
#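 Tet-induced TRPML1-DL cells loaded with Ca8 no-wash calcium dye were read kinetically on FDSS. Compound addition was followed by EC80 agonist 54-4 (4 uM final); inhibition was read over 110 s.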
# * = called active by the depositor; ? = inconclusive; / = not tested or not shown; & = joins results of further samples. The list is partial. The share of hits here may be higher or lower than overall.
# Assay codes – A = TRPML1 agonist; B = Six1-Eya2 inh; C = D2 PAM; D = TRPV1 PAM; E = CtBP-E1A blk; F = TRPML1 blocker
> CCOC(=O)[C@]12Cc3cc(N(C)C)ccc3[C@H]1N(Cc1ccccc1)C(=O)c1ccccc12
  A = 1.0&-1.0; B = ?; C = -3.8; D = /; E = ?; F = -1.5
> CC1CC(C)CN(C(=O)COC(=O)c2cn(C)c3ccccc23)C1 (stereo not drawn)
  A = 0.8; B = -2.2; C = -1.6; D = 3.5; E = -5.8; F = 1.0
> C=CCC1([C@@H](C)CCC)C(=O)NC(=O)NC1=O
  A = 0.3; B = 3.4; C = -8.6; D = /; E = -13.2; F = 4.9
> Cc1cc(C)n2nc(SC(C)C(=O)N3CCC4(CC3)OCCO4)nc2n1 (stereo not drawn)
  A = 0.2; B = 1.3; C = -5.4; D = -7.2; E = 4.1; F = 27.2
> COc1ccc(CN2C(=O)NC(=O)/C(=C/c3ccoc3)C2=O)cc1
  A = 4.8; B = -16.1; C = -13.2; D = -5.9; E = /; F = 21.2
> O=c1[nH]c(=O)n(CCc2ccccc2)c(O)c1/C=N/N1CCOCC1
  A = -0.1; B = 8.1; C = -18.1; D = -4.4; E = /; F = 26.9
> COc1cc(-n2c(=S)[nH]c3ccc(C)cc3c2=O)c(Cl)cc1Cl
  A = 0.1; B = -6.0; C = -12.6; D = -3.8; E = 0.1; F = -19.0
> COC(=O)C1=C(c2ccc(F)cc2OCc2ccccc2)C[C@@H]2CC[C@H]1N2C(=O)N1CCCC1
  A = 0.1; B = -4.2; C = -3.8; D = -16.0; E = 5.1; F = -24.0
> COc1cccc(C(=O)C2CCCN(Cc3ccc4nonc4c3)C2)c1 (stereo not drawn)
  A = 0.8; B = -5.2; C = -5.2; D = 0.6; E = -0.6; F = -3.5
> Cc1cc(C)nc(NC2=NCCS2)n1
  A = 0.4; B = 3.1; C = -8.5; D = 1.3; E = 1.0; F = -0.4

# Assay codes – A = TRPML1 agonist; B = Six1-Eya2 inh; C = D2 PAM; D = TRPV1 PAM; E = CtBP-E1A blk; F = TRPML1 blocker
> CC(NCc1ccccc1C(F)(F)F)C(O)c1ccccc1 (stereo not drawn)
  A = -0.1; B = 5.0; C = -8.4; D = -4.8; E = 5.3; F = -6.5
> CC1(C)C2([N+](=O)[O-])CN3CC1([N+](=O)[O-])CN(C2)C3c1cccnc1 (stereo not drawn)
  A = -0.4; B = 12.5; C = -5.6; D = -17.6; E = 2.2; F = 27.5
> Cc1cc(C(=O)CS(=O)(=O)c2ccc(F)cc2)cc(C)c1OC(=O)N(C)C
  A = 0.0; B = -0.9; C = -2.0; D = ?; E = -5.0; F = -2.3
> CCc1ccc(CNCCc2ccc(F)cc2)cc1
  A = 1.1; B = 7.5; C = -39.7; D = ?; E = -0.5; F = -11.5
> CC(=O)N1CCN(c2ccc(N=Cc3c(O)n(-c4ccc(Cl)cc4)c(=O)[nH]c3=O)cc2)CC1
  A = 1.3; B = -7.5; C = -0.9; D = 6.5; E = -0.1; F = -4.9
> CCCNC(=O)N1[C@H]2CC[C@@H]1C(C(=O)OC)=C(c1ccccc1)C2
  A = -0.6; B = 7.8; C = -4.2; D = /; E = 4.1; F = -10.0
> O=C1NC(=O)C2C1C1(Cl)C(Cl)=C(Cl)C2(Cl)C1(Cl)Cl (stereo not drawn)
  A = 1.5; B = 11.2; C = 2.2; D = /; E = -2.4; F = -2.9
> CN(C)CCCN=Cc1c(O)n(CCc2ccc(F)cc2)c(=O)[nH]c1=O
  A = -0.2; B = -0.4; C = -15.4; D = -7.0; E = -1.0; F = 8.1
> C=CCn1c(O)c(Cc2ccc(OCC)cc2)c(=O)[nH]c1=O
  A = 1.3; B = 4.4; C = -2.5; D = -1.4; E = -4.2; F = 30.6
> CCCCCCn1c(=O)c(C(=O)Nc2ncccc2O)c(O)c2ccccc21
  A = /; B = 4.1; C = -2.7; D = 10.7; E = /; F = /

# Assay codes – A = TRPML1 agonist; B = Six1-Eya2 inh; C = D2 PAM; D = TRPV1 PAM; E = CtBP-E1A blk; F = TRPML1 blocker
> CCOC(=O)C1(c2ccccc2)CCN(CC(=O)Nc2ccc(C)cc2)CC1
  A = 1.7; B = 4.9; C = -21.1; D = -8.9; E = /; F = 18.3
> CCC1CCCCN1P(=O)(c1ccc(C)o1)C(C)(C)C (stereo not drawn)
  A = 2.3; B = -0.6; C = -2.6; D = -7.1; E = 8.0; F = -4.3
> CCS(=O)(=O)NCc1nnc2n1-c1ccc(Br)cc1C(c1ccccc1Cl)=NC2
  A = 0.1; B = -1.6; C = -17.3; D = /; E = /; F = 0.3
> CCOc1cc2c(cc1OCC)-n1cccc1C(c1ccc(OC(F)F)cc1)NC2 (stereo not drawn)
  A = /; B = -23.7; C = -15.6; D = 23.6; E = -3.0; F = /
> Cc1ccc(-c2nc3ccccc3c(=O)n2-c2ccncc2)cc1
  A = -0.1; B = 4.2; C = 6.1; D = 7.3; E = 0.5; F = 36.6
> COc1ccccc1CN1CCN(Cc2ccc(Cl)cc2)CC1
  A = -0.3; B = -5.5; C = -23.5; D = 20.5; E = -6.6; F = -7.8
> CC(C)(C)C(=O)N1Cc2cnnn2-c2ccccc2C1C#N (stereo not drawn)
  A = 0.7; B = 4.1; C = -4.8; D = /; E = -20.2; F = -14.1
> COC(=O)COc1cc(C)cc2oc(=O)c3c(c12)CCCC3
  A = 1.5; B = 0.4; C = 9.8; D = 17.6; E = 5.3; F = 0.8
> Cc1[nH]nc2ccc(-c3cncc(OC[C@@H](N)Cc4c[nH]c5ccccc45)c3)cc12
  A = 0.6; B = -26.0; C = -15.5; D = /; E = ?; F = -21.3
> CCOC(=O)c1ccc(N=Cc2c(O)n(-c3ccc(OC)cc3)c(=S)[nH]c2=O)cc1
  A = 0.5; B = -2.3; C = -9.0; D = -10.6; E = /; F = 31.3
> O=C1NC(=O)C(CCc2ccncc2)(CCc2ccccn2)C(=O)N1c1ccc(Br)cc1 (stereo not drawn)
  A = -0.9; B = 1.4; C = -9.3; D = 13.9; E = 0.3; F = 27.8

# An excerpt of these results, with values under each structure:
# Values run as follows: TRPML1 agonist, Six1-Eya2 inh, D2 PAM, TRPV1 PAM, CtBP-E1A blk, TRPML1 blocker
> C=CCn1c(O)c(Cc2ccc(OCC)cc2)c(=O)[nH]c1=O
 : 1.3, 4.4, -2.5, -1.4, -4.2, 30.6
> CCCCCCn1c(=O)c(C(=O)Nc2ncccc2O)c(O)c2ccccc21
 : /, 4.1, -2.7, 10.7, /, /
> CCOC(=O)C1(c2ccccc2)CCN(CC(=O)Nc2ccc(C)cc2)CC1
 : 1.7, 4.9, -21.1, -8.9, /, 18.3
> CCC1CCCCN1P(=O)(c1ccc(C)o1)C(C)(C)C (stereo not drawn)
 : 2.3, -0.6, -2.6, -7.1, 8.0, -4.3
> CCS(=O)(=O)NCc1nnc2n1-c1ccc(Br)cc1C(c1ccccc1Cl)=NC2
 : 0.1, -1.6, -17.3, /, /, 0.3
> CCOc1cc2c(cc1OCC)-n1cccc1C(c1ccc(OC(F)F)cc1)NC2 (stereo not drawn)
 : /, -23.7, -15.6, 23.6, -3.0, /
> Cc1ccc(-c2nc3ccccc3c(=O)n2-c2ccncc2)cc1
 : -0.1, 4.2, 6.1, 7.3, 0.5, 36.6
> COc1ccccc1CN1CCN(Cc2ccc(Cl)cc2)CC1
 : -0.3, -5.5, -23.5, 20.5, -6.6, -7.8
> CC(C)(C)C(=O)N1Cc2cnnn2-c2ccccc2C1C#N (stereo not drawn)
 : 0.7, 4.1, -4.8, /, -20.2, -14.1
> COC(=O)COc1cc(C)cc2oc(=O)c3c(c12)CCCC3
 : 1.5, 0.4, 9.8, 17.6, 5.3, 0.8
> Cc1[nH]nc2ccc(-c3cncc(OC[C@@H](N)Cc4c[nH]c5ccccc45)c3)cc12
 : 0.6, -26.0, -15.5, /, ?, -21.3
> CCOC(=O)c1ccc(N=Cc2c(O)n(-c3ccc(OC)cc3)c(=S)[nH]c2=O)cc1
 : 0.5, -2.3, -9.0, -10.6, /, 31.3
> O=C1NC(=O)C(CCc2ccncc2)(CCc2ccccn2)C(=O)N1c1ccc(Br)cc1 (stereo not drawn)
 : -0.9, 1.4, -9.3, 13.9, 0.3, 27.8
